Compound activity as filed in PubChem BioAssay.
KCNQ2 enhance = KCNQ2 (rat) channel potentiation | 310,000 compounds, 0.54% hits | CHO-K1 KCNQ2, FluxOR thallium flux fluorescence; hits give high values | B-score at 10 µM | AID 2239;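 active means fluorescence ratio B-score at least 3 SD of library B-scores, with initial fluorescence B-score within 3 SD, cut at about 5.3 in these data; same plate scores as AID 2156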;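 further: B-score of peak minus minimum over baseline fluorescence ratio after K+ and Tl+ stimulus; positive B-score means potentiation of KCNQ2 with more thallium influx and brighter signal; only the inactives scoring about 0 or higher are listed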
Target sequence (O88943 whole entry, looked up): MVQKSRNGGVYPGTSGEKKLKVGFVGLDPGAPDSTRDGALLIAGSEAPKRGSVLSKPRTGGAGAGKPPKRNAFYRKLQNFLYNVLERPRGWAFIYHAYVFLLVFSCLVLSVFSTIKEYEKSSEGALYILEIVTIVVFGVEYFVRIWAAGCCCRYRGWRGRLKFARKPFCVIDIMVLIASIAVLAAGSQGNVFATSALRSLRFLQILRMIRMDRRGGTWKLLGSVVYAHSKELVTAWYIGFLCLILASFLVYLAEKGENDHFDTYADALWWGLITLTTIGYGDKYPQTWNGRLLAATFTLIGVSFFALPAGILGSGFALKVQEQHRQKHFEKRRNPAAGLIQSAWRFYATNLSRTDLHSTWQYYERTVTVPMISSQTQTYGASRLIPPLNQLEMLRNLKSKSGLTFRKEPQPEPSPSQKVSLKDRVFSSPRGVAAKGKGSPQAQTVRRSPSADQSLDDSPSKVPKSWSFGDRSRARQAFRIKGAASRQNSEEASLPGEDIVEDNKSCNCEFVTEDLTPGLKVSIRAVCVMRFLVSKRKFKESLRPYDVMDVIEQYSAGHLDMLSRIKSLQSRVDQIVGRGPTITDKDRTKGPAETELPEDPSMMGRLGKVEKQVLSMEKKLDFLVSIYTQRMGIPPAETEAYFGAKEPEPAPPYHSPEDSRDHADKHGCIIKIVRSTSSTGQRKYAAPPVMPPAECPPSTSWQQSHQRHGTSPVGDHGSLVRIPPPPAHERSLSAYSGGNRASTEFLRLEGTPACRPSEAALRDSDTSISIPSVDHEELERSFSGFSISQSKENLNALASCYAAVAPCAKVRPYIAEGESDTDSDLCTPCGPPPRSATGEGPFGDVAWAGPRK
KCNQ2 enhance baseline = further read-out of KCNQ2 enhance, marked with its call; B-score; compound at 10 µM; measured here: initial fluorescence intensity artifact check;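 brightness before thallium and not channel activity; 0 = typical well and far values either way flag optical interference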
* hit, by the source's call.

SMILES | KCNQ2 enhance | KCNQ2 enhance baseline
Cc1ccc2c(CC(=O)Nc3ccc(N4CCN(C)CC4)cc3C)coc2c1 | 0.5 | 0.39
O=C(CSCc1ccc(F)cc1)Nc1ccccc1 | 0.89 | -0.01
O=C(Cn1c(-c2ccco2)nc2ccccc21)N1CCCCC1 | 1.1 | 1.5
CC1CCCN(C(c2ccccc2)c2sc3ncnn3c2O)C1 (stereo not given) | 0.77 | -0.82
O=C(C[n+]1ccc(C(=O)N/N=C/c2ccc(OCc3ccccc3)cc2)cc1)c1ccccc1 | 1.4 | -0.02
COC(=O)C1C(=O)C(C(=O)c2ccc([N+](=O)[O-])cc2)C(=O)CC1(C)C (stereo not given) | 0.38 | 0.01
Cc1cc(Nc2cccc(Cl)c2)n2ncnc2n1 | 0.98 | -0.11
COc1ccc(CCNC(=O)C(C)OC(=O)c2cccs2)cc1OC (stereo not given) | 0.51 | -0.39
CCOC(=O)c1c(C)[nH]c(C(=O)OCc2ccccc2F)c1C | 0.79 | 4.8
COc1cccc(S(=O)(=O)Nc2cccc(C(=O)N3CCCCCC3)c2)c1 | 1.8 | -0.33
CCCN(C(=O)Cc1ccc(S(=O)(=O)N2CCOCC2)s1)c1c(N)n(Cc2ccccc2)c(=O)[nH]c1=O | 1.8 | 0.87
Cc1nc(Nc2nc(-c3ccccc3)cc(=O)[nH]2)nc2ccccc12 | 0.17 | 1
Cc1c(C(=O)N2CCCCC2)c(S(=O)(=O)N(C)Cc2ccco2)c(C)n1C | 0.44 | -0.64
CNC(=O)NCC12CC3CC(CC(C3)C1)C2 | 1.9 | 0.07
COc1cc(OC)cc(C(=O)NCC(=O)OC2CCOC2=O)c1 (stereo not given) | 0.75 | -0.45
CC(=O)Nc1ccc(S(=O)(=O)Nc2nc3ccccc3nc2N2CCCC2)cc1 | 0.29 | 1
COc1ccc(S(=O)(=O)NCC(c2ccc3c(c2)OCO3)N2CCOCC2)cc1C (stereo not given) | 0.22 | -1.1
CCOc1ccc(NC(=O)c2ccc3snnc3c2)cc1 | 0.34 | -1.6
O=C(OCc1cnc(Cl)s1)c1cccc(Cl)c1Cl | 0.14 | 1
O=C(Cn1c(O)c(/C=C2\C=Nc3ccccc32)sc1=O)Nc1ccc2c(c1)OCO2 | 0.09 | -0.62

The final 4 records of the part above lead into the next:
SMILES | KCNQ2 enhance | KCNQ2 enhance baseline
COc1ccc(S(=O)(=O)NCC(c2ccc3c(c2)OCO3)N2CCOCC2)cc1C (stereo not given) | 0.22 | -1.1
CCOc1ccc(NC(=O)c2ccc3snnc3c2)cc1 | 0.34 | -1.6
O=C(OCc1cnc(Cl)s1)c1cccc(Cl)c1Cl | 0.14 | 1
O=C(Cn1c(O)c(/C=C2\C=Nc3ccccc32)sc1=O)Nc1ccc2c(c1)OCO2 | 0.09 | -0.62
Oc1ccc(Cl)cc1/C=N/c1nccs1 | 1.1 | 0.89
COc1cc(C)nc(N2CCCC(C(=O)NCC(C)C)C2)n1 (stereo not given) | 0.49 | 0.35
CCNS(=O)(=O)c1ccc(C(=O)Nc2ccccc2)cc1 | 0.92 | -0.06
COc1ccc2cc(CN(Cc3ccco3)C(c3nnnn3C3CCCCC3)C(C)C)c(=O)[nH]c2c1 (stereo not given) | 0.31 | -0.22
COc1ccc(C(=O)N2CCN(S(=O)(=O)N3CCOCC3)CC2)cc1OC | 0.05 | 0.06
Brc1cccc(C=Nc2cccc3ncccc23)c1 | 0.34 | 0.6
Cc1ccc(NC(=O)Cc2nnc(SCC(=O)NC3=NCCS3)n2C)cc1 | 0.47 | 0.96
Cc1ccc2[nH]c(=O)c(C(c3nnnn3C3CCCC3)N3CCCc4ccccc43)cc2c1 (stereo not given) | 0.06 | 0.38
COc1ccc(N(C(=O)c2cnccn2)C(C(=O)NCc2ccccc2)c2ccc(O)cc2)cc1 (stereo not given) | 0.2 | 2.1
COC(=O)c1c(NC(=O)CSc2nnnn2-c2ccccc2)sc2c1CCCC2 | 0.42 | -0.57
Cc1ccc(S(=O)(=O)NNC2CC(=O)N(c3ccc(Br)cc3)C2=O)cc1 (stereo not given) | 1.6 | -0.25
COC(C(=O)Nc1ccnn1C1CCN(Cc2ccc(C)s2)CC1)c1ccccc1 (stereo not given) | 3.2 | 0.18
C=CCOc1c(Br)cc(/C=C2/NC(=S)N(C(C)=O)C2=O)cc1OC | 0.02 | 0
CC(NC(=O)Nc1cccc(Cl)c1)C(c1cccs1)N1CCCC1 (stereo not given) | 1.2 | 0.26
CCCSc1nc2ccsc2c(=O)n1CC | 0.2 | -0.21
CCOc1ccc(N2CC(C(=O)N3CCN(c4ccccn4)CC3)CC2=O)cc1 (stereo not given) | 0.92 | -2.1
CCC1=C(OC(=O)N(CC)CC)N2C(=O)OC(=NCC(=O)OC)[C@]2(Cc2ccccc2)[C@H]2C1=CC[C@H]1C(=O)N(C)C(=O)[C@H]12 | 0.42 | 0.43
O=C1c2ccccc2S(=O)(=O)c2cc(N3CCN(c4ccccn4)CC3)ccc21 | 0.36 | -1.8
COCCN(CCOC)C(=O)c1c[nH]c2ccc(S(=O)(=O)N(C)c3ccc(F)cc3)cc2c1=O | 0.13 | -0.19
COc1ccc(CNC(=O)[C@@H](NC(=O)C2CCN(C(=O)[C@@H](N)Cc3ccccc3)CC2)C(C)C)cc1 | 1.3 | 0.65
CC(C)c1ccc(-c2nnn(CC(=O)N3CCCCC3)n2)cc1 | 1.7 | -0.61
CCOC(=O)c1cnn(-c2nc3c(C)cccc3s2)c1C(F)(F)F | 0.64 | -0.11
CCCNC(=O)Nc1ccc(C)cc1C | 1.1 | -2
CCCn1cc2c(c1-c1ccc(C)cc1)c(=O)n(C)c(=O)n2C | 1.4 | -1
COc1cc(C(=O)OCC(=O)NCCN2C(=O)CSC2=O)ccc1OCc1c(C)noc1C | 0.07 | -0.31
COc1ccc(C(=O)COc2ccc(C)cc2NC(C)=O)cc1 | 1.4 | 0.51
Cc1cc(OC(C)C(=O)Nc2ccc(S(=O)(=O)Nc3onc(C)c3C)cc2)cc(C)c1Cl (stereo not given) | 0.91 | -1.1
O=[N+]([O-])c1cccc(CNCc2ccccc2)c1 | 1.7 | 0.35
CCN1C(=O)/C(=C\c2ccc(-c3cccc(C(=O)OC)c3)o2)SC1=Nc1ccc(C(=O)O)cc1 | 1.1 | -1.4
CSCC[C@H](NC(=O)NC1CCCC1)C(=O)O | 0.91 | 1
CC(C)NC(NC(=O)Cc1ccccc1)C(Cl)(Cl)Cl (stereo not given) | 0.37 | -1.2
CC1(C)CC2(CCO1)OC(=O)CC2C(=O)Nc1ccccc1Cl (stereo not given) | 2.2 | -0.21
O=C1CCC(C(=O)Nc2nnc(C3CC3)s2)=NN1 | 0.01 | -0.58
FC(F)(F)c1cccc(N2CCc3cn[nH]c32)c1 | 0.55 | -0.57
O=C1CC(N2CCN(c3ccc(Cl)c(Cl)c3)CC2)C(=O)N1 (stereo not given) | 1.2 | -0.32
NC(=O)N1c2ccccc2CC(=O)c2ccccc21 | 0.95 | -0.05
O=C(Nc1nccs1)c1ccc(Cl)c([N+](=O)[O-])c1 | 0.03 | 0.02
O=C1N[C@@H](Cc2cn(S(=O)(=O)c3c(F)c(F)c(F)c(F)c3F)c3ccccc23)C(=O)N[C@H]1Cc1ccccc1 | 0.59 | 0
CC(=O)OC(C(=O)NC1CCCCC1)c1ccccc1Cl (stereo not given) | 0.02 | 0.16
CCOC(=O)N1CCN(Cc2nc3cc(NC(=O)c4ccco4)ccc3n2C)CC1 | 0.6 | -1.3

Whole records from above. Values in the order: KCNQ2 enhance | KCNQ2 enhance baseline
CC(C)c1ccc(-c2nnn(CC(=O)N3CCCCC3)n2)cc1 across the screens: 1.7 | -0.61
CCOC(=O)c1cnn(-c2nc3c(C)cccc3s2)c1C(F)(F)F across the screens: 0.64 | -0.11

The list goes on:
SMILES | KCNQ2 enhance | KCNQ2 enhance baseline
COc1ccc(S(=O)(=O)Nc2ccccc2C(=O)NCc2ccco2)cc1 | 1.6 | -0.67
CCc1ccc(NC(=O)Nc2c(C)n(C)n(-c3ccccc3)c2=O)cc1 | 1.4 | -0.34
CCC(C)c1ccc(NC(=O)C2CC3CCC2C3)cc1 (stereo not given) | 26* | 1.9*
Cc1[nH]c2ccc(F)cc2c(=O)c1SC(F)(F)C(F)C(F)(F)F (stereo not given) | 0.02 | 0.08
COc1ccc2[nH]c(C(=O)O)c(NS(=O)(=O)c3ccc(Cl)s3)c2c1 | 0.04 | 1.8
Nc1nc(SCc2ccc(Cl)cc2)ns1 | 0.8 | -0.21
CCCCc1ccc(NC(=O)CN2NS(=O)(=O)c3ccccc3C2=O)cc1 | 2.6 | 0.04
COc1ccc(NC(=O)N2CCC(n3nnc4cc(C)ccc43)CC2)cc1 | 1.1 | 2.1
CC(=O)N(Cc1cccs1)C1CCOC(C)(C)C1 (stereo not given) | 0.8 | 1.3
CN(c1ccccc1)S(=O)(=O)c1ccc(NC(=O)C2CCCCC2C(=O)O)cc1 (stereo not given) | 0.52 | 0.56
CC1=C(C(=O)OCCOc2ccccc2)C(c2coc3ccccc3c2=O)C2=C(CCCC2=O)N1 (stereo not given) | 1.1 | 0.13
COc1ccc(N2CCN(C(CNC(=O)C(=O)NC3CCCC3)c3ccco3)CC2)cc1 (stereo not given) | 0.13 | -0.48
Cn1c2c(c(=O)n(C)c1=O)C(C(F)(F)F)(C(F)(F)F)N=C(C1CCCCC1)N2 | 0.18 | 2.2
O=C(CSCc1ccc(Cl)cc1)N/N=C/c1ccc(OCC(=O)Nc2ccccc2)cc1 | 0.69 | -2.7
CN(C)CCCNc1nc(N)c([N+](=O)[O-])c(NCc2ccccc2)n1 | 0.96 | 0.3
CCOC(=O)c1cc(NC(=O)CSc2nnc(CN3CCOCC3)n2C)ccc1Cl | 0.05 | 1.9
Cc1ccc(N=Nc2c(N)[nH]n3c(=O)c4c(nc23)CCCC4)cc1 | 2.1 | -0.75
CC(C)(C)c1cc(OC(=O)C2CCCC2)ccc1O | 0.52 | -1.1
O=C(O)CC1Sc2nnc(COc3ccc(Cl)cc3)n2N=C1c1ccccc1 (stereo not given) | 0.23 | 0.02
Cc1c(C(=O)N2CCOCC2)sc(NC(=O)c2ccc([N+](=O)[O-])cc2)c1C#N | 0.86 | -0.39

Some of these compounds in order of their number in KCNQ2 enhance, highest first:
mol | KCNQ2 enhance | KCNQ2 enhance baseline
CCCCc1ccc(NC(=O)CN2NS(=O)(=O)c3ccccc3C2=O)cc1 | 2.6 | 0.04
Cc1ccc(N=Nc2c(N)[nH]n3c(=O)c4c(nc23)CCCC4)cc1 | 2.1 | -0.75
COc1ccc(CCNC(=O)C(C)OC(=O)c2cccs2)cc1OC (stereo not given) | 0.51 | -0.39
Cc1c(C(=O)N2CCCCC2)c(S(=O)(=O)N(C)Cc2ccco2)c(C)n1C | 0.44 | -0.64
CC(C)NC(NC(=O)Cc1ccccc1)C(Cl)(Cl)Cl (stereo not given) | 0.37 | -1.2
CCOc1ccc(NC(=O)c2ccc3snnc3c2)cc1 | 0.34 | -1.6

Other records follow.
SMILES | KCNQ2 enhance | KCNQ2 enhance baseline
CCN(CCNC(=O)C1CCC(=O)N1Cc1ccc(C)cc1)c1ccccc1 (stereo not given) | 0.58 | 1.8
CCc1nc(SCC(=O)N2CCN(C(=O)c3ccco3)CC2)c2c3c(sc2n1)CCCC3 | 0.79 | 1.5
COc1ccc(OC)c(NC(=O)COC(=O)CNC(=O)c2ccc(OC)c(OC)c2)c1 | 1.1 | -0.39
CCc1nnc(SCc2ccc(OC(C)C)cc2)n1N | 0.28 | -0.3
COc1ccc(C(=O)NC2=NCCS2)cc1S(=O)(=O)N1CCCCC1C (stereo not given) | 1.1 | -0.78
Cc1ccc(N2C(=O)N3[C@H](c4ccc(Br)cc4)[C@@H]4C(=O)N(C(C)(C)C)C(=O)[C@@H]4[C@]3(C)C2=O)cc1 | 0.9 | -0.3
O=C(c1ccoc1)N1CCCC(Nc2ccc(F)c(F)c2)C1 (stereo not given) | 1.1 | 0.32
COc1ccc(NC(=O)Cn2c(CCC(=O)O)ccc2-c2ccccc2)cc1 | 0.17 | 0.4
O=S(=O)(Nc1nnc(C2CCCCC2)s1)c1ccc(F)cc1 | 0.98 | -1.1
CCOc1ccc(NC(=O)CN(C)CC(=O)Nc2ccc(F)c(F)c2F)cc1OCC | 0.38 | 1
COc1ccc(-n2nc(C(=O)NCC(=O)NCCCN3CCN(C)CC3)c3ccccc3c2=O)cc1OC | 0.09 | 0.01
O=C(Cn1nnc(-c2ccccc2)n1)NC1CCS(=O)(=O)C1 (stereo not given) | 1.7 | -1
O=C(Nc1cccc(NS(=O)(=O)c2ccc(S(=O)(=O)NC3CC3)cc2)c1)c1ccccn1 | 0.01 | -0.69
Cc1cc(NC(=O)CSc2ccc3nnc(-c4cccc(F)c4)n3n2)no1 | 1.2 | 0.67
CCn1nnnc1SCC(=O)c1ccc(NC(C)=O)cc1 | 1.1 | 1.2
Cc1c(NC(=S)NC(=O)C(c2ccccc2)c2ccccc2)cccc1C(=O)O | 1.2 | -0.03
COC(=O)c1nn(-c2ccc(OC)cc2)c(=O)cc1Oc1ccccc1 | 0.81 | -1.9
CC(C)(C)NC(=O)CN(C(=O)CCC(=O)Nc1nccs1)c1ccc(F)cc1 | 0.79 | 2.2
O=C1CN(C(=O)CNC(=O)c2ccccc2Cl)c2ccccc2N1 | 1.6 | -1.2
CN1C(=S)SC2CS(=O)(=O)CC21 (stereo not given) | 1.5 | 0.71
COc1ccc(CN(C(=O)c2cccs2)c2ccccc2C(=O)O)cc1 | 0.12 | 0.38
CN1CCN(c2ccc(NC(=O)c3cc4ccccc4o3)cc2)CC1 | 1.2 | -0.46
COc1ccccc1NC(=O)CN1C(=O)NC(CC(C)C)C1=O (stereo not given) | 1.6 | -2.2
COC(=O)N1[C@H](C)C=C[C@]1(Cc1ccccc1)C(=O)O | 1.5 | -2.1
O=C(Cn1c(=O)n(Cc2ccc(F)cc2)c(=O)c2ccccc21)NCC1CCCO1 (stereo not given) | 0.43 | 0.19

An excerpt (hit frequency here may not be typical).
